TRPV1 potentiator – potentiators of human vanilloid receptor 1 (TRPV1); 320,000 compounds, 0.02% hits; Q8NER1; TRPV1-expressing cells, Fluo-8 calcium influx, capsaicin EC20 potentiation; host cell line not named in the record; control for the full effect not named in the record; potentiation, % at 8.33 µM; AID 540277; active means potentiation above 80%; inconclusive means 30% to 80%; inactive means below 30%; also: 0% is about no effect
Target sequence (Q8NER1 whole entry, looked up): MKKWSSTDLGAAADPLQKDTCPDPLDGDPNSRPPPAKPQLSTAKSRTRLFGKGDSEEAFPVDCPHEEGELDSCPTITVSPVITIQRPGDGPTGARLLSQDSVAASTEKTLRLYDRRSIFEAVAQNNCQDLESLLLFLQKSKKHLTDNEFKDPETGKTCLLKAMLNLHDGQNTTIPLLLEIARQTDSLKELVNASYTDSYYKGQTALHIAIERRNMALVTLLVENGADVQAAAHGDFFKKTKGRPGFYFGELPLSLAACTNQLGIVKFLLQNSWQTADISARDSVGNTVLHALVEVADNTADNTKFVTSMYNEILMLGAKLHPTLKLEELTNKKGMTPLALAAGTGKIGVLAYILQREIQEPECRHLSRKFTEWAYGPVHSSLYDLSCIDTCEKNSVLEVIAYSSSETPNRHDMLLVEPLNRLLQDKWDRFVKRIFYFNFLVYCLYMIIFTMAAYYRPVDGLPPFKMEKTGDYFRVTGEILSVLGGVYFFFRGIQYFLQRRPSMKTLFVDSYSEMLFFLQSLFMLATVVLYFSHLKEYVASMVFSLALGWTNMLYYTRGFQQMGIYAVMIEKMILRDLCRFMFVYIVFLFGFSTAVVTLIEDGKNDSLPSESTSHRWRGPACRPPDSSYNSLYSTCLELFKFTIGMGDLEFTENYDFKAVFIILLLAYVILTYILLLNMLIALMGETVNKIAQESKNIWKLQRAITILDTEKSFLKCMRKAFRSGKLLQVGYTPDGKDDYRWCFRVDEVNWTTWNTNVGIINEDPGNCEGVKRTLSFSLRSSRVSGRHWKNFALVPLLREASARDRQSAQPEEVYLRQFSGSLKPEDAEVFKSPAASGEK
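TRPV1-expressing cells were cultured overnight at 35.5C and loaded with Fluo-8 calcium dye for 40 to 90 min at room temperature. After a 10 s baseline, compound was added and calcium influx was read kinetically for 3 min (ex 480/em 520 nm).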
CtBP-E1A inh – blocks the CtBP interaction with E1A | AlphaScreen GST-E1A/His-CtBP binding, 1536-well; active compounds read low; control for the full effect not named in the record | 340,000 compounds, 0.49% hits | activity change, % (test concentration not listed); in the data active means activity change below about -65%; inconclusive means about -30% to -65%; inactive means above about -30%; also: % is scaled to controls: 0 for no effect and ±100 for the full control effect
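GST-E1A and His-tagged CtBP (125 nM each as 5X stock) were preincubated with pin-transferred compound for 2 h at 37 °C in the dark, then glutathione donor and nickel acceptor beads were added for 1 h before AlphaScreen reading.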
Six1-Eya2 blk – inhibitors of human Six1/Eya2 interaction; AID 651725; Q15475+O00167; 360,000 compounds, 0.56% hits; activity change, % (no concentration beside the values); AlphaScreen GST-Six1/His-Eya2 binding, biochemical; active compounds read low; control for the full effect not named in the record; in the data active = activity change below about -65%; inconclusive = about -30% to -65%; inactive = above about -30%; also: % is scaled to controls: 0 for no effect and ±100 for the full control effect
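Compounds are tested against tagged Six1 and Eya2 proteins bridged by glutathione donor and nickel acceptor beads; after a one-hour incubation at 37 °C without light, AlphaScreen emission is recorded.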
TRPML1 blocker – inhibitors of human TRPML1 channel | TRPML1-inducible cells, Ca2+ dye fluorescence, FDSS; active compounds read low; inhibition of EC80 agonist-evoked calcium signal | 390,000 compounds, 0.02% hits | activity change, negative = inhibition, % (concentration not given with the values) | AID 624415 | Q9GZU1; in the data active means activity change below about -50%; inconclusive means about -30% to -50%; inactive means above about -30%;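 also: stimulus is agonist 54-4 at its EC80 concentration; % is scaled to controls: 0 for no effect and ±100 for the full control effect; the text of the record puts the active cut at -80%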
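Calcium fluorescence in TRPML1-DL cells induced overnight with Tet: a 110 s read after compound pin addition, then a 110 s antagonist read after challenge with 54-4 at 4 uM final (EC80).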
D2 potentiator – human D2 receptor positive allosteric modulation. DiscoveRx D2 beta-arrestin cells, luminescence, 90 min; 100% = 57 uM dopamine signal. potentiation, % (no concentration beside the values). 360,000 compounds, 0.23% hits. AID 624464; active = potentiation of 50% or more; inconclusive = 30% to 50%; inactive = 30% or less;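 also: compound concentration not given in the record; tested on top of an EC20 dose of dopamine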
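PathHunter beta-arrestin assay in DiscoveRx D2 cells. Compounds were added with an EC20 of dopamine (50 nM final) for 90 min at 37 deg C. Luminescence was read 1 h after detection reagent, with 57 uM dopamine as the EC100 control.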
TRPML1 agonist – activates the human TRPML1 channel. 410,000 compounds, 0.12% hits. activation, % (test concentration not listed). TRPML1-expressing cells, Ca2+ dye fluorescence, FDSS; host cell line not named in the record; reference of the full effect not given here. AID 624414. Q9GZU1; in the data active = activation above about 50%; inconclusive = about 30% to 50%; inactive = below about 30%; also: 0% is about no effect; the text of the record puts the active cut at 80%
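Calcium fluorescence on an FDSS kinetic reader gave the read-out. Tet-induced TRPML1-DL cells were plated overnight, dye-loaded (Ca8 with quencher, 45-90 min, room temperature, dark), then read 110 s after compound addition, and again 110 s after 4uM final 54-4 (EC80).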
The depositor's hits bear a star; ? = inconclusive; nt = no result given; & = joins results of further samples.

Sample of the layout (10 entries):
[1] Cc1cc(C)n(C(=O)/C(C#N)=C/N(C)C)n1
[2] O=C(NC(NC(=S)Nc1c(Cl)cccc1Cl)C(Cl)(Cl)Cl)c1cccc([N+](=O)[O-])c1 (centres undefined)
[3] CCCCNC(=O)C[C@@H]1C[C@@]2(C(=O)OCC)CCCC=C2N(Cc2ccc3c(c2)OCO3)C1=O
[4] O=C(NCc1nc2ccccc2[nH]1)C1=C[C@H](c2ccc3c(c2)OCO3)C[C@H](OCc2ccc(CO)cc2)O1
[5] Cc1ccc(OCC(=O)Nc2ccccc2Sc2ccccc2)c([N+](=O)[O-])n1
[6] CCN(CC)CCn1c(N)c(S(=O)(=O)c2ccccc2)c2nc3ccccc3nc21
[7] COCCNC(=O)C(c1ccc(C)cc1)N(C(=O)CCC(=O)Nc1ccccn1)c1cccc(C)c1 (centres undefined)
[8] CSc1cccc(NC(=O)C2CCN(S(=O)(=O)c3ccc(F)cc3)CC2)c1
[9] Cc1ccc(-c2[nH]c(=S)[nH]c(=O)c2C#N)cc1
[10] CCOc1ccc(S(=O)(=O)NCc2ccncc2)cc1NC(=O)c1ccccc1F

assay / entry,1,2,3,4,5,6,7,8,9,10
TRPV1 potentiator,-5,5,nt,-10,-5,1,0,9,10,-13
CtBP-E1A inh,-1,0,2,-11,-15,3,-4,4,-18,-13
Six1-Eya2 blk,2,-8,-1,-10,-2,1,7,0,7,2
TRPML1 blocker,-8,-15,nt,-8,-7,6,-3,-8,4,-6
D2 potentiator,2,-32,nt,-28,-12,-31,-5,-16,-17,-4
TRPML1 agonist,0.3,2.5,-0.7,0.4,2.2,1.1,0.6,0.6,0.5,-1.3

Main list, repeating the preview:
[1] Cc1cc(C)n(C(=O)/C(C#N)=C/N(C)C)n1
[2] O=C(NC(NC(=S)Nc1c(Cl)cccc1Cl)C(Cl)(Cl)Cl)c1cccc([N+](=O)[O-])c1 (centres undefined)
[3] CCCCNC(=O)C[C@@H]1C[C@@]2(C(=O)OCC)CCCC=C2N(Cc2ccc3c(c2)OCO3)C1=O
[4] O=C(NCc1nc2ccccc2[nH]1)C1=C[C@H](c2ccc3c(c2)OCO3)C[C@H](OCc2ccc(CO)cc2)O1
[5] Cc1ccc(OCC(=O)Nc2ccccc2Sc2ccccc2)c([N+](=O)[O-])n1
[6] CCN(CC)CCn1c(N)c(S(=O)(=O)c2ccccc2)c2nc3ccccc3nc21
[7] COCCNC(=O)C(c1ccc(C)cc1)N(C(=O)CCC(=O)Nc1ccccn1)c1cccc(C)c1 (centres undefined)
[8] CSc1cccc(NC(=O)C2CCN(S(=O)(=O)c3ccc(F)cc3)CC2)c1

assay / entry,1,2,3,4,5,6,7,8
TRPV1 potentiator,-5,5,nt,-10,-5,1,0,9
CtBP-E1A inh,-1,0,2,-11,-15,3,-4,4
Six1-Eya2 blk,2,-8,-1,-10,-2,1,7,0
TRPML1 blocker,-8,-15,nt,-8,-7,6,-3,-8
D2 potentiator,2,-32,nt,-28,-12,-31,-5,-16
TRPML1 agonist,0.3,2.5,-0.7,0.4,2.2,1.1,0.6,0.6

[9] Cc1ccc(-c2[nH]c(=S)[nH]c(=O)c2C#N)cc1
[10] CCOc1ccc(S(=O)(=O)NCc2ccncc2)cc1NC(=O)c1ccccc1F
[11] CC(=O)N1CCc2c(sc(NC(=O)CS(=O)(=O)c3ccc(F)cc3)c2C#N)C1
[12] O=C(CC1OC(=O)c2ccccc21)c1ccco1 (centres undefined)
[13] C[C@H](O)CNC(=O)c1[nH]cnc1C(=O)Nc1cccc(Cl)c1
[14] O=C(NCc1ccccc1)C1(C(F)(F)F)C/C(=C\CCO)CCCO1 (centres undefined)
[15] COc1ccccc1NC(=O)c1ccc2c(c1)N(CC(=O)NC(C)C)C(=O)C(C)(C)O2
[16] CCN(CC(=O)Nc1c(F)cccc1F)C(=O)c1cn2ccccc2n1

assay / entry,9,10,11,12,13,14,15,16
TRPV1 potentiator,10,-13,19,-28,nt,nt,-9,4
CtBP-E1A inh,-18,-13,1,-1,4,3,-5,-4
Six1-Eya2 blk,7,2,-4,-3,3,5,-16,4
TRPML1 blocker,4,-6,5,-1,24,16&4,-3,-14
D2 potentiator,-17,-4,1,-2,4,-6,-2,-4
TRPML1 agonist,0.5,-1.3,0.6,0.9,0.1,-0.6&1.2,-0.4,-0.1

[17] Cc1occc1-c1nnc(SCCNCCO)o1
[18] Cc1ccc(-n2c(N)c(C#N)c(-c3ccccc3)c(C#N)c2=O)cc1
[19] CCn1c(COc2ccccc2)nnc1SCC(=O)CC(=O)Nc1ccccc1OC
[20] CCOc1ccc(-c2nc(N)ncc2-c2ccccc2)c(O)c1
[21] Cc1cc(=O)oc2cc(OCC(=O)N3CCC(O)CC3)c(Cl)cc12
[22] Cc1c(C(=O)N2CCCCC2)sc(NC(=O)c2ccco2)c1C#N
[23] NC(=O)c1cc(S(=O)(=O)N2CCCC2)ccc1OCCOc1ccccc1F
[24] Cc1cc(C(=O)NN)c(Cl)cc1Cl

assay / entry,17,18,19,20,21,22,23,24
TRPV1 potentiator,0,-11,8,10,10,4,0,6
CtBP-E1A inh,10,-1,-10,-15,3,-2,2,4
Six1-Eya2 blk,-4,-7,-2,-8,0,-4,-3,1
TRPML1 blocker,62,8,-8,19,-1,-2,6,-13
D2 potentiator,-13,-3,-7,-2,-2,-9,7,-10
TRPML1 agonist,-0.7,-0.8,0.2,1.6,0.2,1.4,-0.6,-0.5

[25] Cc1ccc(Cn2c(N3CCNCC3)nc3c2c(=O)[nH]c(=O)n3C)cc1
[26] C/C(=N\NC(=S)NCc1ccccc1)c1cccc(Br)c1
[27] CCOc1ccccc1NC(=O)C(=O)CC(=O)c1ccc(OC)cc1
[28] CC(NC(=O)COC(=O)Cc1cccs1)c1ccc(F)cc1 (centres undefined)
[29] Cc1cc(C)cc(NS(=O)(=O)c2c(C(=O)N3CCOCC3)c(C)n(C)c2C)c1
[30] CCOc1ccc(N2CC(C(=O)N3CC(C)OC(C)C3)CC2=O)cc1 (centres undefined)
[31] Cc1noc(C)c1S(=O)(=O)N1CCCC(C(=O)c2cccc(OC(C)C)c2)C1 (centres undefined)
[32] COc1ccc(NC(=O)COC(=O)c2cc(OC)c(OC)cc2NC(=O)c2ccco2)cc1OC

assay / entry,25,26,27,28,29,30,31,32
TRPV1 potentiator,2,5,-3,nt,-1,-21,-6,-7
CtBP-E1A inh,-4,-2,-10,-4,1,0,18,-2
Six1-Eya2 blk,7,-19,-7,3,1,2,3,-2
TRPML1 blocker,-1,7,30,-7,-12,-4,-10,-5
D2 potentiator,-6,-16,-7,6,-1,-5,-8,-5
TRPML1 agonist,0.2,2.7,1.6,1.2,-0.9,0.3,0.2,1.8

[33] CCOC(=O)[C@H]1[C@H]2COc3ccc(Br)cc3[C@@H]2N2C(=O)c3ccc(Cl)cc3NC(=O)[C@@]12C
[34] CN(C(=O)COC(=O)Cc1ccc(Br)cc1)c1c(N)n(Cc2ccccc2)c(=O)[nH]c1=O
[35] Cn1c(SCCN2CCCCC2)nnc1-c1ccccc1Br
[36] N#C/C(=C(/O)COC(=O)CSc1ccc(Cl)cc1)c1nc2ccccc2[nH]1
[37] COc1cccc(N2CCN(C(=O)CCC(=O)c3ccc(Cl)s3)CC2)c1
[38] O=C(CSc1nnc(-c2ccncc2)n1Cc1ccccc1)NC1CCCCC1
[39] COC(=O)c1ccc2c(=O)[nH]c(COC(=O)c3c(-c4ccccc4)noc3C)nc2c1
[40] Clc1cccc(-c2nc(-c3ccccn3)no2)c1

assay / entry,33,34,35,36,37,38,39,40
TRPV1 potentiator,?,nt,-29,7,-2,-3,-4,-10
CtBP-E1A inh,-11,-6,6,-17,nt,-1,8,6
Six1-Eya2 blk,-8,33,6,-7,-1,-11,-10,2
TRPML1 blocker,17,-1,-8,-7,-7,-4,7,-9
D2 potentiator,-11,-8,-22,-16,3,-12,-4,-10
TRPML1 agonist,1.1,-0.5,4.3,0.2,-0.6,0.8,-0.6,-1.3

[41] O=C(COc1ccccc1[N+](=O)[O-])Nc1cccc(S(=O)(=O)N2CCCC2)c1
[42] CC(=O)NC12CC3CC(C1)CC(C(=O)N1CCN(S(=O)(=O)c4cccc(C(F)(F)F)c4)CC1)(C3)C2
[43] Cc1ccccc1SC1CCN(Cc2nc(C3CC3)no2)CC1
[44] O=C(NCCS(=O)(=O)NC1CCCCC1)c1ccccc1
[45] Nc1nonc1N/N=C\c1ccccc1
[46] C=CCNC(=O)/C(=C/c1ccco1)NC(=O)c1ccc(Br)o1
[47] CC(=O)COc1nc2c(c(-c3ccco3)c1C#N)CCc1ccccc1-2
[48] COc1ccc(C(=O)C2CCN(CC(=O)Nc3ccc(OC)cc3OC)CC2)cc1

assay / entry,41,42,43,44,45,46,47,48
TRPV1 potentiator,nt,9,-14,-3,3,?,-5,-14
CtBP-E1A inh,-16,0,16,3,15,4,11,6
Six1-Eya2 blk,-24,35,7,12,-13,7,11,-22
TRPML1 blocker,17,7,-4,5,-1,0,11,31
D2 potentiator,-12,-18,-15,-13,-5,-16,-8,-14
TRPML1 agonist,0.4,0.6,2.5,-0.4,-0.4,0.9,2.1,0.4

[49] COc1ccc(NC(C)C(=O)Nc2ccc(C(C)(C)C)cc2)cc1Cl (centres undefined)
[50] N#Cc1ccsc1NC(=O)CN1CCN(c2ccccc2O)CC1
[51] COc1ccc(CCNS(=O)(=O)c2ccc(N3CCCC3=O)cc2)cc1
[52] O=C(CCc1nnc(CCCCc2ccccc2)o1)NC1CCCC1
[53] CC1=C(C(=O)OCc2ccccc2)C(c2ccccc2Cl)NC(=O)N1CCCCCC(=O)O (centres undefined)
[54] O=C(Cc1c(F)cccc1Cl)NCCc1c[nH]c2ccccc12
[55] COc1ccc(C)cc1S(=O)(=O)N1CCN(C(=O)c2ncoc2-c2ccc(F)cc2)CC1
[56] COc1ccc(S(=O)(=O)N(C)CC(=O)Nc2ccc(C(N)=O)cc2)cc1OC

assay / entry,49,50,51,52,53,54,55,56
TRPV1 potentiator,-9,-12,nt,10,-33,9,1,?
CtBP-E1A inh,-18,-1,-1,-6,-1,-18,0,nt
Six1-Eya2 blk,-23,-12,1,9,0,-12,-2,7
TRPML1 blocker,16,-5,-8,-11,-10,1,10,-16
D2 potentiator,-5,-6,-9,5,8,-4,0,-30
TRPML1 agonist,0.2,1.0,-0.5,-0.2,-0.8,1.1,-0.5,1.5

[57] Cc1nc(C(=O)NNC(=O)c2ccc(Cl)cc2)cs1
[58] Cc1ccc(C)c(OCc2cc(C(=O)N3CCC(N4CCCC(O)C4)CC3)no2)c1 (centres undefined)
[59] N#Cc1nc(/C=C/c2ccccc2)oc1NCCCN1CCOCC1
[60] CCN(CC)S(=O)(=O)c1cc(NC(=O)COc2ccc(C#N)cc2OC)ccc1C
[61] CCOC(=O)/C=C1\SCC(=O)N1CC(=O)NCc1cccc(Cl)c1
[62] N#Cc1ccsc1NC(=O)COC(=O)c1ccc(Br)o1

assay / entry,57,58,59,60,61,62
TRPV1 potentiator,5,-16,21,-13,1,nt
CtBP-E1A inh,-7,1,-2,-7,0,-27
Six1-Eya2 blk,6,1,2,-15,-20,-21
TRPML1 blocker,12,5,37,10,-4,20
D2 potentiator,-2,-7,-23,-16,-2,-2
TRPML1 agonist,0.3,0.8,1.1,1.3,-0.6,2.5

Screens from PubChem.
